NOMO-1 viab = STK33 inhibitor candidate reducing NOMO-1 cell viability; NOMO-1 AML viability, CellTiter-Glo luminescence, 72 h; inhibition, % (test concentration not listed); actives 7.5% (n = 37,000); AID 2330;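 active = most replicates above 80%; inconclusive = exactly half above 80%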;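 also: wells of about 30 µL received 25 nL stock; 0% = median of vehicle wells and 100% = reference inhibitor level; the first replicate is given; inactives centre near 10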
Active calls of the source: *; ? = inconclusive. This is a subset, so the mix of outcomes need not match the whole.

SMILES	NOMO-1 viab
COC(=O)C1=C(C)Nc2c(c(=O)n(C)c(=O)n2C)C1c1cccc(OCc2ccccc2)c1 (centres undefined)	7
COC(=O)C(NC(=O)c1ccccc1)(c1c(C)[nH]n(-c2ccccc2)c1=O)C(F)(F)F (centres undefined)	10
COc1ccc(S(=O)(=O)N(C)C[C@@H]2Oc3ccc(NS(=O)(=O)c4cn(C)cn4)cc3CC(=O)N([C@@H](C)CO)C[C@@H]2C)cc1	12
O=C(NCc1cccnc1)c1ccc(-c2ccccc2[N+](=O)[O-])o1	2
COc1ccc(NC(=O)N(C)C[C@@H]2Oc3c(NC(=O)CCCCCC(=O)Nc4ccccc4N)cccc3C(=O)N([C@@H](C)CO)C[C@@H]2C)cc1	3
C[C@@H]1CN([C@H](C)CO)C(=O)c2cccc(NC(=O)Nc3ccccc3)c2O[C@@H]1CN(C)CC1CCCCC1	11
Cc1ccc(S(=O)(=O)Nc2cccc3c2O[C@H](CN(C)C(=O)Nc2c(C)noc2C)[C@H](C)CN([C@H](C)CO)C3=O)cc1	-20
C[C@@H]1CN([C@H](C)CO)C(=O)Cc2cc(NC(=O)C3CC3)ccc2O[C@@H]1CN(C)S(=O)(=O)c1cccs1	-9
COc1ccc(S(=O)(=O)Nc2cccc3c2O[C@@H](CN(C)Cc2ccc(C(=O)Nc4ccccc4N)cc2)[C@H](C)CN([C@H](C)CO)C3=O)cc1	72
Cc1cc(NC(=O)c2cccc(S(=O)(=O)N3CCOCC3)c2)no1	9
C[C@H](CO)N1C[C@H](C)[C@@H](CN(C)CC2CC2)Oc2c(NC(=O)Nc3ccc4c(c3)OCO4)cccc2C1=O	21
CCN(C(=O)Cn1c(-c2nonc2N)nc2ccccc21)c1ccccc1	-5
C[C@H]1CN([C@@H](C)CO)C(=O)Cc2cc(NC(=O)NC3CCCCC3)ccc2O[C@@H]1CN(C)Cc1ccccc1	27
COC(=O)c1c(NC(=O)c2ccc(OC)c(OC)c2)sc2c1C(C(=O)OC)CC2 (centres undefined)	40
COc1ccc(NC(=O)N(C)C[C@H]2Oc3ccc(NC(=O)Nc4ccc(C(F)(F)F)cc4)cc3C(=O)N([C@H](C)CO)C[C@H]2C)cc1	?
C[C@@H]1CCCCO[C@H](CN(C)C(=O)CCCN(C)C)[C@@H](C)CN([C@H](C)CO)C(=O)c2cc(NC(=O)CCCN(C)C)ccc2O1	-1
CSc1ccccc1NC(=O)CN(c1ccccc1Br)S(C)(=O)=O	15
O=c1[nH]c(CSc2nnc(-c3ccccc3)o2)nc2ccccc12	34
O=c1c(-c2ccccc2)c(O)cc(-c2ccc(F)cc2)n1-c1ccccc1	-22
COc1ccc(OC)c(-c2nc(C)sc2CC(=O)O)c1	5
C[C@@H]1CN([C@H](C)CO)C(=O)Cc2cc(NS(C)(=O)=O)ccc2O[C@@H]1CN(C)C(=O)Nc1ccc(F)cc1	20
O=C(O)CCC(=O)Nc1ccc(F)cc1	-14
COc1ccc(S(=O)(=O)Nc2ccc3c(c2)C(=O)N([C@@H](C)CO)C[C@@H](C)[C@H](CN(C)CC2CCCCC2)O3)cc1	16
S=c1nccc(-c2ccc3c(c2)CCO3)[nH]1	7
COc1ccc(S(=O)(=O)Nc2ccc3c(c2)CC(=O)N([C@@H](C)CO)C[C@H](C)[C@H](CN(C)S(=O)(=O)c2cn(C)cn2)O3)cc1	5

Random excerpt: 2 entries already listed.
SMILES	NOMO-1 viab
O=c1[nH]c(CSc2nnc(-c3ccccc3)o2)nc2ccccc12	34
CCN(C(=O)Cn1c(-c2nonc2N)nc2ccccc21)c1ccccc1	-5

Of the compounds above, these contain an NH in an aromatic ring:
SMILES	NOMO-1 viab
COC(=O)C(NC(=O)c1ccccc1)(c1c(C)[nH]n(-c2ccccc2)c1=O)C(F)(F)F (centres undefined)	10
O=c1[nH]c(CSc2nnc(-c3ccccc3)o2)nc2ccccc12	34
S=c1nccc(-c2ccc3c(c2)CCO3)[nH]1	7

Molecules shown so far that contain fluorine (5):
SMILES	NOMO-1 viab
COC(=O)C(NC(=O)c1ccccc1)(c1c(C)[nH]n(-c2ccccc2)c1=O)C(F)(F)F (centres undefined)	10
COc1ccc(NC(=O)N(C)C[C@H]2Oc3ccc(NC(=O)Nc4ccc(C(F)(F)F)cc4)cc3C(=O)N([C@H](C)CO)C[C@H]2C)cc1	?
O=c1c(-c2ccccc2)c(O)cc(-c2ccc(F)cc2)n1-c1ccccc1	-22
C[C@@H]1CN([C@H](C)CO)C(=O)Cc2cc(NS(C)(=O)=O)ccc2O[C@@H]1CN(C)C(=O)Nc1ccc(F)cc1	20
O=C(O)CCC(=O)Nc1ccc(F)cc1	-14

(more compounds)
SMILES	NOMO-1 viab
CC(C)NC(=O)N(C)C[C@@H]1Oc2ccc(NC(=O)Nc3ccc(C(F)(F)F)cc3)cc2C(=O)N([C@@H](C)CO)C[C@H]1C	38
O=C(OC1(C#CCN2CCCCC2)CCCCC1)c1ccccc1	117*
COc1ccc(S(=O)(=O)N(C)C[C@H]2Oc3c(NS(=O)(=O)c4cn(C)cn4)cccc3C(=O)N([C@H](C)CO)C[C@@H]2C)cc1	-11
Cc1cc(C)c(N=C(N)NN)cc1C	43
CCOC(=O)c1cnc2ccc(OCC)cc2c1NC(C)CC (centres undefined)	117*
C[C@@H]1CN([C@H](C)CO)C(=O)c2cc(NC(=O)Nc3ccc4c(c3)OCO4)ccc2O[C@H]1CN(C)C(=O)Nc1ccc(F)cc1	13
C/C(=C/COc1c(OC2OC(CO)C(O)C(O)C2O)ccc2ccc(=O)oc12)CO (centres undefined)	13
CCn1c(SCC(=O)Nc2ccc([N+](=O)[O-])cc2C)nnc1-c1ccc(Cl)cc1	13
C[C@@H]1CN([C@@H](C)CO)C(=O)Cc2cc(N(C)C)ccc2O[C@@H]1CN(C)S(C)(=O)=O	3
N#Cc1ccccc1CSc1ncn[nH]1	7
Cc1cc(Br)ccc1NC(=O)CN(C)S(=O)(=O)c1ccc(Cl)cc1	-4
C[C@@H]1CN([C@@H](C)CO)C(=O)c2cccc(NS(C)(=O)=O)c2O[C@@H]1CN(C)Cc1ccc(C(=O)Nc2ccccc2N)cc1	123*
COc1ccc(NC(=S)N2CCN(Cc3c(C)nn(C)c3C)CC2)cc1OC	-7
O=C(CSc1nc(N2CCCCC2)nc(N2CCCCC2)n1)N1CCc2ccccc21	20
C[C@@H]1CN([C@@H](C)CO)C(=O)Cc2cc(NS(=O)(=O)c3ccc(Cl)cc3)ccc2O[C@@H]1CN(C)Cc1ccc(Cl)c(Cl)c1	124*
C[C@@H]1CN([C@H](C)CO)C(=O)c2cccc(NS(=O)(=O)c3cccs3)c2O[C@H]1CN(C)C(=O)Nc1ccc(F)cc1	-3
C[C@H](CO)N1C[C@H](C)[C@H](CN(C)Cc2ccc(Oc3ccccc3)cc2)Oc2ccc(NC(=O)c3ccncc3)cc2CC1=O	47
Cc1cc(C)c(S(=O)(=O)N(C)CC(=O)Nc2cc([N+](=O)[O-])ccc2C)c(C)c1	21
C[C@@H]1CCCCO[C@@H](CN(C)C)[C@@H](C)CN([C@H](C)CO)C(=O)c2cc(NC(=O)Nc3ccc(F)cc3)ccc2O1	9
N#C[C@@H](O[C@@H]1O[C@H](CO)[C@@H](O)[C@H](O)[C@H]1O[C@@H]1O[C@H](CO)[C@@H](O)[C@H](O)[C@H]1O)c1ccccc1	-10
CC(Oc1ccccc1)C(=O)Nc1cccc(-c2nnc(-c3ccccc3)o2)c1 (centres undefined)	26
C[C@H](CO)N1C[C@H](C)[C@H](CN(C)C(=O)NC2CCCCC2)Oc2ccc(NC(=O)Nc3ccccc3)cc2CC1=O	-2
COc1ccc(NC(=O)COc2ccc([N+](=O)[O-])cc2)c(OC)c1	1
C[C@@H]1CN([C@@H](C)CO)C(=O)c2cccc(N(C)C)c2O[C@H]1CN(C)Cc1ccc(C(=O)Nc2ccccc2N)cc1	90*
Cc1noc(C)c1NC(=O)Nc1ccc2c(c1)C(=O)N([C@H](C)CO)C[C@H](C)[C@H](CN(C)S(=O)(=O)c1cn(C)cn1)O2	8

Next section
SMILES	NOMO-1 viab
COc1ccc(OC)c(NC(=O)c2c(NC(=O)c3ccco3)sc3c2CCC3)c1	0
C[C@H](CO)N1C[C@H](C)[C@H](CN(C)C(=O)Nc2ccc3c(c2)OCO3)Oc2ccc(NC(=O)C3CC3)cc2C1=O	10
C[C@@H]1CN([C@@H](C)CO)C(=O)c2cccc(NC(=O)c3ccc(-c4nccs4)cc3)c2O[C@H]1CN(C)C	18
C[C@H]1CN([C@@H](C)CO)C(=O)c2cc(NC(=O)CCCCCC(=O)Nc3ccccc3N)ccc2O[C@H]1CN(C)Cc1ccc(-c2ccccc2)cc1	109*
COc1cc(/C=C/C(=O)O)cc(OC)c1OC	-4
COc1ccc(S(=O)(=O)Nc2cccc3c2O[C@H](CN(C)C(=O)Nc2ccccc2)[C@H](C)CN([C@H](C)CO)C3=O)cc1	-6
CC(C)C(O)(C(=O)OCc1ccc(O[C@@H]2O[C@H](CO)[C@@H](O)[C@H](O)[C@H]2O)cc1)C(C)O (some centres undefined)	4
CN(CC(=O)Nc1ccc(C(F)(F)F)cc1)S(=O)(=O)c1ccc(Br)cc1	24
N=c1oc2ccccc2cc1C(=O)Nc1ccc(F)cc1	120*
Cc1noc(C)c1NC(=O)Nc1ccc2c(c1)C(=O)N([C@@H](C)CO)C[C@@H](C)[C@@H](CN(C)S(=O)(=O)c1ccc(F)cc1)O2	-2
COc1ccc(NC(=O)N(C)C[C@H]2OCCCC[C@@H](C)Oc3ccc(NC(=O)Nc4ccc(C(F)(F)F)cc4)cc3C(=O)N([C@H](C)CO)C[C@@H]2C)cc1	32
C[C@H]1CN([C@@H](C)CO)C(=O)c2cc(NC(=O)Cc3ccccc3)ccc2O[C@@H]1CN(C)S(=O)(=O)c1ccc(Cl)cc1	9
CCOc1ccc(C)cc1S(=O)(=O)n1cnc2ccccc21	127*
OCCCNc1ncnc2oc(-c3ccccc3)c(-c3ccccc3)c12	40
Cc1cc(-c2ccc3ccccc3n2)nc2ccc3ccccc3c12	18
COc1cc(CCC(=O)O)oc(=O)c1	16
COc1ccccc1OCC(=O)Nc1ccc(-c2nc3ccc(C)cc3[nH]2)cc1	110*
COc1ccc(Cl)cc1NC(=O)N(C)Cc1c(C)nn(C)c1C	15
COc1ccccc1NC(=O)C1=C(C)NC(SCC(N)=O)=C(C#N)C1c1ccccc1 (centres undefined)	24
C[C@H]1CN([C@@H](C)CO)C(=O)c2cccc(NC(=O)C3CC3)c2O[C@H]1CN(C)Cc1ccc(C(F)(F)F)cc1	6
COc1ccc(S(=O)(=O)N(C)C[C@H]2Oc3c(NC(=O)Nc4ccc(F)cc4)cccc3C(=O)N([C@@H](C)CO)C[C@@H]2C)cc1	-4
C[C@@H]1CN([C@@H](C)CO)C(=O)c2cccc(NS(=O)(=O)c3ccc(Cl)cc3)c2O[C@@H]1CN(C)S(=O)(=O)c1ccc(Cl)cc1	18
COc1ccc(CN(C)C[C@@H]2Oc3c(NC(=O)NC4CCCCC4)cccc3C(=O)N([C@@H](C)CO)C[C@@H]2C)cc1	3
Cc1ccc(-c2nc3cc(NC(=O)COc4ccccc4Cl)ccc3o2)c(C)c1	68
Cc1nc([N+](=O)[O-])c(Sc2nc3ncc(Cl)cc3[nH]2)n1Cc1ccccc1	62

Other compounds.
SMILES	NOMO-1 viab
C[C@H](CO)N1C[C@H](C)[C@H](CN(C)Cc2ccc(Cl)c(Cl)c2)Oc2c(NS(=O)(=O)c3cn(C)cn3)cccc2C1=O	11
C[C@H]1CN([C@@H](C)CO)C(=O)Cc2cc(NC(=O)C3CCCCC3)ccc2O[C@H]1CN(C)Cc1ccc(C(=O)O)cc1	9
Cc1noc(C)c1S(=O)(=O)Nc1ccc2c(c1)C(=O)N([C@H](C)CO)C[C@@H](C)[C@@H](CN(C)C(=O)Nc1ccc3c(c1)OCO3)O2	18
COc1ccc(CN2C(=O)C(O)(CC(=O)c3c(C)coc3C)c3ccccc32)cc1OC (centres undefined)	50
O=C(O)c1[nH]c2ccccc2c1C(c1ccccc1)c1c(C(=O)O)[nH]c2ccccc12	2
O=C(CSc1nc2ccccc2c(=O)n1Cc1ccccc1)c1cc2ccccc2o1	-10
C[C@H]1CN([C@@H](C)CO)C(=O)c2cccc(NS(C)(=O)=O)c2O[C@H]1CN(C)CC1CCCCC1	-15
CS(=O)(=O)N(CC(=O)NC1CCCCC1)c1cccc(Cl)c1	-16
C[C@@H]1CN([C@@H](C)CO)C(=O)c2cc(NS(C)(=O)=O)ccc2O[C@H]1CN(C)C(=O)Nc1cccc2ccccc12	-21
CC(C)C(C(=O)O)N1C(=O)/C(=C/c2ccccc2)SC1=S (centres undefined)	-2
COC(=O)CCC(=O)NC(=S)Nc1ccccc1F	16
Cc1cc(C)c2nc(-c3ccccn3)cc(C(=O)NCc3cc(C)n(C)n3)c2c1	16
CC(=O)O[C@@H]1c2c(ccc3ccc(=O)oc23)OC(C)(C)[C@@H]1OC(=O)C=C(C)C	38
c1ccc(-n2c(SCc3nc4ccccc4s3)nnc2-c2cccs2)cc1	39
Cc1sc2ncn(CC(=O)NCc3ccco3)c(=O)c2c1-c1ccc(Cl)cc1	11
O=C(CSc1ncnc2sc3c(c12)CCCCC3)NCc1ccco1	131*
CCOc1ccc(NC(=O)C(C)Sc2nnc(C)n2-c2ccccc2)cc1 (centres undefined)	5
Cc1noc(C)c1NC(=O)Nc1ccc2c(c1)C(=O)N([C@@H](C)CO)C[C@@H](C)[C@@H](CN(C)C(=O)Nc1cccc3ccccc13)O2	23

Screens from PubChem BioAssay.
